Compound activity deposited in PubChem BioAssay by National Center for Advancing Translational Sciences (NCATS).
HPGD inh – blocks human HPGD enzyme activity; P15428; purified HPGD, NADH fluorescence kinetic, PGE2 substrate; Potency, µM, for inactives: top-dose activity change, negative = inhibition, hits mostly inhibitors; 4.3% of 150,000 active; AID 894; active = well fitted inhibition curve with a large enough effect (not every such curve was filed as active); inconclusive = small, poorly fitted or top-dose-only effect, or another doubt; inactive = no such curve, though single readings can be large or run the other way;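 also: top concentration of the series not given in the record; plate controls included wells without enzyme; inactives centre near -10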
Target sequence (P15428 whole entry, looked up): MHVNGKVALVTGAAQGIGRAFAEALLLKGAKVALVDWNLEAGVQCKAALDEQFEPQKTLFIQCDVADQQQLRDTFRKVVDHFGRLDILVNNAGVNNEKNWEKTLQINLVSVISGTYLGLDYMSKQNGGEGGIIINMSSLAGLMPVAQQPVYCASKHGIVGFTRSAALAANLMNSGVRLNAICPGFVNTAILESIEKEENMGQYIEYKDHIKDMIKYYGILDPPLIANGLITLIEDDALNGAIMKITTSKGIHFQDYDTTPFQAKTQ
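20 nM HPGD preincubated 15 min at room temperature with compound in 50 mM Tris-HCl pH 8, 0.01% Tween 20. Started with 1 mM NAD+ and 30 uM prostaglandin E2; NADH fluorescence (360/450 nm) read 5 times over 30-s intervals, last minus first.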
* marks the source's active call; other numbers are inactive results; ? = inconclusive. % is scaled to controls: 0 for no effect and ±100 for the full control effect; potency is read from the fitted curve at half-maximal effect.

HPGD inh	canonical_smiles
-12%	Cc1ccc(S(=O)(=O)N2CCN(C(=O)c3nn(C(C)C)c(=O)c4ccccc34)CC2)cc1C
-23%	O=C(C1CCCO1)N1CCN(c2ncccn2)CC1 (centres undefined)
-9%	COCCn1c(SCC(=O)Nc2ccc(S(=O)(=O)N3CCOCC3)cc2)nc2ccccc21
-7%	Cn1ccnc1Sc1ccc(/C=N/NC(=O)c2ccccc2O)cc1[N+](=O)[O-]
-13%	Cc1ccc(-n2nnnc2SCC(=O)NC(=O)Nc2ccc3c(c2)OCCO3)cc1
-10%	Cc1ccc(C(=O)O/N=C(\N)c2ccc(Br)cc2)cc1
8.9µM*	O=C(CCCOc1ccc(Cl)cc1Cl)n1nnc2ccccc21
2%	Nc1ccc2c(c1)N1CCN=C1S2
-9%	COc1ccccc1OCCOCCOc1ccc(C)cc1[N+](=O)[O-]
3%	OCCNCCOc1ccccc1-c1ccccc1
?	N#CCCn1c(=O)c(-c2ccccc2)nc2cnc(Oc3ccccc3)nc21
-2%	O=C(COc1ccc(Br)cc1CO)Nc1ccccc1
-8%	Cc1nc2n(n1)CC(O)CS2 (centres undefined)
?	CN(C)c1ncc2nc(-c3cc(F)cc(F)c3)c(=O)n(Cc3cccs3)c2n1
-6%	CSc1c(CC(=O)Nc2ccc(F)cc2)n(Cc2ccccc2)c2ccccc12
-5%	Cc1ccccc1OCc1nc(-c2ccc(Br)o2)no1
?	O=C(Cn1c(=O)oc2cc(S(=O)(=O)N3CCCC3)ccc21)N1CCN(c2ccccn2)CC1
-9%	NC(=O)COc1ccccc1/C=C1/SC(=O)N(CC(=O)N2CCc3ccccc3C2)C1=O
-12%	COc1ccc(S(=O)(=O)Nc2ccc(C)cc2)cc1N(C)S(=O)(=O)c1ccc(Cl)cc1
-5%	O[C@@H](c1cc([C@@]23C[C@H]4CC[C@@H]2C[C@H](C4)C3)nc2c(Cl)cc(Cl)cc12)C1CCCCN1 (some centres undefined)
13µM*	COc1cc(-c2c(C#N)c(N)nc(SCc3ccncc3)c2C#N)cc(OC)c1OC
-11%	COc1cc2oc(=O)cc(-c3ccc(-c4sccc4C=O)cc3)c2c(OC)c1OC
-16%	CC(C)(C)OC(=O)N/N=C\c1ccc(OC(=O)c2cccs2)cc1
11µM*	COc1cccc(NC(=S)NCc2ccco2)c1
-14%	O=C(CCCNC(=O)/C(=C/c1ccc(F)cc1)NC(=O)c1ccccc1)OCc1ccccc1

(cont.)
HPGD inh	canonical_smiles
5%	C[n+]1ccn(CC(=O)c2ccc(Br)cc2)c1
?	COc1ccc(C2c3c(ccc4ccccc34)Oc3ncn4nc(Cc5ccccc5)nc4c32)cc1OC (centres undefined)
-17%	O=C(Nc1cccc(F)c1)N1CC2(CCN(C(=O)c3cc(C(F)(F)F)cc(C(F)(F)F)c3)CC2)C1
-4%	CC(C)NC(=O)NC(=O)COC(=O)CCCSc1nc2ccccc2s1
-16%	O=C1CN(C(=O)c2ccc(Br)o2)C(c2ccc(F)cc2)c2cc(F)ccc2N1 (centres undefined)
-8%	CC1CCCCN1CCNC(=O)CN1C(=O)COc2ccccc21 (centres undefined)
?	COc1ccc(-n2c(NC(=O)c3ccc(Br)o3)c(C#N)c3nc4ccccc4nc32)cc1
?	O=C(Nc1ccc(Oc2ccc(Cl)cc2)cc1)c1ncn[nH]1
-11%	CC1CC(=O)c2cnc(N)nc2C1 (centres undefined)
-3%	CC(C)CCNC(=O)CCCC1=NS(=O)(=O)c2ccccc2N1
?	CC(=O)[C@H]1[C@H](c2cccc(Cl)c2)C(C#N)(C#N)[C@@H]2c3ccccc3C=CN21
-10%	O=C(Nc1ccc(N2CCOCC2)cc1)C1(S(=O)(=O)c2ccccc2)CC1
-8%	COc1ccc(CN(C)CC(=O)Nc2ccccc2C(F)(F)F)c(OC)c1
-7%	CCCSCCCNC(=O)Cn1cc2c(n1)CCC(C)C2 (centres undefined)
-15%	COc1ccc(OC)c(NC(=O)c2ccc(NS(=O)(=O)c3c(C)noc3C)cc2)c1
-5%	Cc1ccc(/C(N)=N/OC(=O)C23CC4CC(CC(C4)C2)C3)cc1
0%	O=C(c1ccncc1)N1CCN(C(=O)c2cccs2)CC1
-6%	COC(=O)c1ccc(C2C(C(C)=O)=C(C)Nc3ncnn32)cc1 (centres undefined)
-8%	CCCn1c(=N)n(CC(=O)c2ccco2)c2ccccc21
-11%	CCn1c(O)c(N=NC(=O)CNc2cccc(C)c2)c2ccccc21
-3%	CCOCCCn1c(=S)[nH]c2cc(C(=O)NCCN(CC)CC)ccc2c1=O
-13%	COc1cc(C)c(Cl)cc1S(=O)(=O)NCc1ccncc1
28µM*	CC1CCN(c2ncnc3c2cnn3-c2ccccc2)CC1
-8%	O=C(c1ccccc1)N1CCN(CC(O)COC2CCCCC2)CC1 (centres undefined)
13µM*	CSc1nc(C)c(Oc2ccccc2)c(=O)n1C

Remaining list, next part
HPGD inh	canonical_smiles
14µM*	CC(C)Cc1cc(C(=O)Nc2cc(Cl)ccc2Cl)no1
-17%	O=C(Cc1ccc(F)cc1)Nc1cccc2cccnc12
14µM*	Cc1n[nH]c(=S)n1/N=C/c1ccc(-c2ccccc2[N+](=O)[O-])o1
?	O=c1c2cc(Cl)ccc2oc2nc3n(c(=O)c12)CCCS3
?	CCCc1nc(N2CCOCC2)c(C#N)c2c1CCCC2
-10%	Fc1ccc(CNc2ccc(CNc3ncn[nH]3)cc2)cc1
-19%	CCNc1oc(-c2ccc(OC)cc2)nc1S(=O)(=O)c1ccc(Br)cc1
-20%	CCOC(=O)c1ccccc1NC(=O)N1CCn2c(C)ccc2C1CC (centres undefined)
?	COc1ccccc1CC(=O)Nc1cc2oc3ccccc3c2cc1OC
-3%	COc1ccc(OC)c(NC(=O)C2CCCN(S(=O)(=O)c3cccc4cccnc34)C2)c1 (centres undefined)
-6%	COC(=O)c1cn(NC(=O)CC2CCCCC2)c(=O)c2ccccc12
-14%	O=C/C=C/c1ccc(O)cc1
-25%	N#C/C(C(=O)NCc1ccco1)=C1/SC(Cc2ccc(Cl)cc2)C(=O)N1c1ccccc1 (centres undefined)
?	Cc1cc(C)n2nc(NCc3cccc(Br)c3)nc2n1
?	N#C/C(=C\c1cn(-c2ccccc2)nc1-c1cccnc1)c1nnc2n1CCCCC2
-16%	C=C(C)CSc1nncn1/N=C/c1ccc(OC)cc1
-3%	CCCC(=O)NCCc1nc2ccccc2n1C
-3%	Cc1cc(C)nc(SCC(=O)Nc2ccc(N3CCOCC3)cc2)n1
-8%	CS/C(=C\[N+](=O)[O-])Nc1ccccc1
?	CCc1ccc(-c2cc(C(F)(F)F)n3nc(C(=O)Nc4c(C)nn(Cc5ccccc5C)c4C)cc3n2)s1
-6%	COc1ccccc1NS(=O)(=O)c1ccc(NC(=O)Cc2cccs2)cc1
-28%	CCCC(=O)NC(=S)Nc1ccccc1C(=O)OC
-3%	CC1(C)CN(O)CCN1O
-2%	Cc1nc2ccc(S(=O)(=O)NC(C(=O)N3CCCCCC3)C(C)C)cc2s1 (centres undefined)
-1%	CCOC(=O)c1ccc(NC(=O)CC2C(=O)N(c3cccc(OC)c3)C(=O)N2CCOC)cc1 (centres undefined)

Structures listed so far shown as hits in HPGD inh.
HPGD inh	canonical_smiles
8.9µM*	O=C(CCCOc1ccc(Cl)cc1Cl)n1nnc2ccccc21
13µM*	COc1cc(-c2c(C#N)c(N)nc(SCc3ccncc3)c2C#N)cc(OC)c1OC
11µM*	COc1cccc(NC(=S)NCc2ccco2)c1
28µM*	CC1CCN(c2ncnc3c2cnn3-c2ccccc2)CC1
13µM*	CSc1nc(C)c(Oc2ccccc2)c(=O)n1C
14µM*	CC(C)Cc1cc(C(=O)Nc2cc(Cl)ccc2Cl)no1
14µM*	Cc1n[nH]c(=S)n1/N=C/c1ccc(-c2ccccc2[N+](=O)[O-])o1

The results go on.
HPGD inh	canonical_smiles
?	CCCn1c(/C=C/c2ccco2)nc2ccccc21
-21%	COc1cc2ncnc(NCc3ccc(C)cc3)c2cc1OC
-13%	O=C(OC1CCN(c2ncc(C(F)(F)F)cc2Cl)CC1)c1ccccc1
-30%	CCOC(=O)c1c(/N=C/N(C)C)sc(C(=O)OC)c1C
-12%	Cc1c(C(=O)/C=C/c2cccs2)oc2ccc(F)cc12
-11%	Cc1ccc(-c2noc(CSc3nnc(Cc4ccccc4)n3-c3ccc(Cl)cc3)n2)cc1
-3%	CCc1cc2c(cc3c(=O)n(CC(=O)NCCCN(CC)CC)nc(CC)n32)s1
-8%	O=c1c2cnn(-c3ccccc3)c2ncn1Cc1cccc(Cl)c1
-6%	CCC1=C(OC(=O)N(CC)CC)N2C(=O)OC(=NCCOC)[C@]2(Cc2ccccc2)[C@H]2C1=CC[C@H]1C(=O)NC(=O)[C@H]12
2%	COCc1cc(=O)n2[nH]c(SC)nc2n1
?	CC(=O)c1ccc(NC(=O)COC(=O)c2ccccc2Nc2ccccc2)cc1
-6%	CC(C1OC(C)(C)C(O)C1O)C1CC[C@@]2(C)C3=CCC4C(C)(C)C(=O)CC[C@]4(C)C3CC[C@@]12C (some centres undefined)
-7%	CC1CCCCC1NC(=O)NC(=O)CCl (centres undefined)
?	O=C(CSc1ccc(Cl)cc1)Nc1cccc(-c2nc3ccccc3[nH]2)c1
-8%	C=CCN1C(=O)C(Cc2cccc(Cl)c2)S/C1=N/N=C/c1ccco1 (centres undefined)
-13%	O=C(OCn1nnc2ccccc2c1=O)c1ccc2ccccc2n1
-8%	COCCNC(=O)c1ccccc1NC(=O)COc1ccccc1
-22%	c1csc(-c2nnc(NC3CCCCC3)c3ccccc23)c1
-4%	Nc1cccc(-c2nc3cc(S(=O)(=O)c4ccc5oc(-c6cccc(N)c6)nc5c4)ccc3o2)c1
-21%	CCOC(=O)c1oc2ccccc2c1NC(=O)C1CCCCC1
-5%	COc1ccc(C(=O)c2oc3ccc(Br)cc3c2NC(C)=O)cc1
1%	COc1ccc2oc(C)c(NC(C)=O)c2c1
-12%	O=c1[nH][nH]c(-c2ccccc2)c1C=Nc1ccc(Cl)cc1
-15%	CC1CCc2c(sc3ncnc(SCC(=O)N4CCN(C(=O)c5ccco5)CC4)c23)C1 (centres undefined)
-12%	COC(=O)c1cc(C(=O)OC)cc(N2C(=O)CC(NNC(=O)c3ccccc3Br)C2=O)c1 (centres undefined)

(list continues)
HPGD inh	canonical_smiles
-1%	O=C(CN1CCC(n2nnc3cc(F)ccc32)CC1)NC1CCCCC1
-13%	CCOc1c(Br)cc(C2NS(=O)(=O)N=C3CCCCCN32)cc1OC (centres undefined)
0%	COC(=O)CP(=O)(c1ccccc1)c1ccccc1
-13%	Cc1ccccc1Nc1nc(Nc2ccccc2C)nc(SC2=NCCS2)n1
-6%	C=CCNC(=O)/C(=C/c1ccco1)NC(=O)c1ccc(Br)o1
-17%	Cc1ccc(NC(=O)Cn2c(O)c(N=NC(=O)c3cc4ccccc4cc3O)c3ccccc32)cc1
1%	COC(=O)CCN(C(=O)c1ccc2c(c1)OCO2)c1ccccn1
-11%	Cc1onc(-c2ccccc2Cl)c1C(=O)Nc1ccc(OCC(=O)N2CCOCC2)cc1
-2%	CCn1cnc2cc(NCc3nc4ccccc4n3C)ccc21
-10%	COc1cccc(/C=N/NC(=O)c2cc3c(OC)cccc3[nH]2)c1O
-6%	O=C(CS(=O)(=O)Cc1ccccc1)Nc1ccccc1Cl
-12%	COc1ccc(NS(=O)(=O)c2cc(NC(=O)c3ccncc3)ccc2N2CCOCC2)cc1
0%	CCOC(=O)c1c(C)[nH]c(C(=O)N/N=C/c2cccc(OC)c2)c1C
1%	O=C(NC1CC1)C1=NOC(CNc2ncc(C(F)(F)F)cc2Cl)C1 (centres undefined)
?	O=C1c2ccccc2NC(c2cccc(Cl)c2)N1N=C1CCCCCC1 (centres undefined)
?	O=C(Nc1ccc2oc(=O)ccc2c1)c1cccnc1
-10%	CCCCC(c1nnnn1CS(=O)(=O)c1ccc(C)cc1)N1CCN(c2ccccc2)CC1 (centres undefined)
-28%	O=C(c1nc2n(n1)C(c1ccc(Cl)cc1)C=C(c1ccccc1)N2)N1CCOCC1 (centres undefined)
-7%	COc1ccc(C(NC(=O)C(C)(C)C)NC(=O)C(C)(C)C)cc1
-4%	COc1ccc(OC)c(NC(=O)c2cccnc2Sc2ccccc2)c1
-24%	C/C(=N\NC(=O)c1ccccc1)c1ccc(N2CCOCC2)cc1
-2%	CCN1CCN(C(=O)Nc2cccc(C(F)(F)F)c2)CC1
?	Cc1cc(C(F)(F)F)c(C#N)c(SCC(=O)Nc2nc3cc(Br)ccc3s2)n1
2%	O=C(c1cnccn1)N1CCC2(CC1)CCN(c1ccncc1)CC2
-14%	CN(Cc1ccccc1)C(=O)CN1C(=O)C2C3C=CC(C3)C2C1=O (centres undefined)

Part of the list above in a different format:
SMILES | HPGD inh
COc1ccccc1OCCOCCOc1ccc(C)cc1[N+](=O)[O-] | -9%
OCCNCCOc1ccccc1-c1ccccc1 | 3%
N#CCCn1c(=O)c(-c2ccccc2)nc2cnc(Oc3ccccc3)nc21 | ?
O=C(COc1ccc(Br)cc1CO)Nc1ccccc1 | -2%
Cc1nc2n(n1)CC(O)CS2 (centres undefined) | -8%

Other structures follow:
HPGD inh	canonical_smiles
-16%	CCC1CCCCN1CCCNC(=O)Cn1nc(-c2ccc(C)cc2)ccc1=O (centres undefined)
4%	COc1ccc(C(=O)N2CCN(c3cccc(Cl)c3)CC2)cc1
-13%	CC(=O)NCCNc1ncncc1-c1ccccc1C(F)(F)F
-11%	CCOc1ccc(C(=O)NC(=S)NC2CCCC2)cc1[N+](=O)[O-]

Looked up one by one from the list above:
HPGD inh	canonical_smiles
-11%	CCOc1ccc(C(=O)NC(=S)NC2CCCC2)cc1[N+](=O)[O-]
4%	COc1ccc(C(=O)N2CCN(c3cccc(Cl)c3)CC2)cc1

This is a subset (hit frequency here may not be typical).
